# Compound activity: PubChem, several laboratories
# Mtb growth = M. tuberculosis H37Rv growth inhibitors, H37Rv strain (AID 1626); M. tuberculosis H37Rv growth inhibition; higher % means a stronger effect; inhibition, % at 10 µM, or IC50 in µM where a hit was titrated; hit rate 0.95% among 220,000;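 active = confirmed in a dose series; inconclusive = inhibition above 80% but not taken into the dose series; inactive = below 80% or under 30% at every dose of the series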;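 note: bacteria incubated seven days before Alamar blue readout; 0% = bacteria only wells and 100% = bacteria with antibiotic wells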
# Mtb betalactam = beta-lactam sensitization of Mtb H37Rv; M. tuberculosis H37Rv growth with meropenem, percent inhibition; hits of this screen are not shown here; inhibition, % at 25 µM; hit rate 0.27% among 330,000; AID 434955;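 active = about 74% or more and at least 40 points above the plate without the antibiotic, then above 30% in a dose series; inconclusive = first-round hits that could not be retested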;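 note: growth measured after seven days incubation then overnight dye step; 0% = bacteria only wells and 100% = bacteria with antibiotic; twin plates without the antibiotic show which effects depend on it; some results filed as inactive read as strong as hits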
# Arbovirus inh = arbovirus infection inhibition; arbovirus infection cell-based antiviral screen; inhibition, % at 10 µM; hit rate 0.37% among 200,000; AID 1251;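 active = inhibition from about 30%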;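 note: bluetongue infection of BSR cells; cell survival read as ATP light after 72 h; 0% = infected wells without compound and 100% = uninfected wells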
# RecA intein inh = blocks M. tuberculosis RecA intein splicing | P9WHJ3 | cell-free RecA intein splicing, fluorescence | inhibition, %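 (about 9 µM by stock and volumes)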 | hit rate 0.75% among 290,000 | AID 2221; in the data active = inhibition above about 30%; inconclusive = no clear call, values can overlap the other calls;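 note: 0% = vehicle wells and 100% = reference inhibitor control wells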
# Target sequence (P9WHJ3 whole entry, looked up): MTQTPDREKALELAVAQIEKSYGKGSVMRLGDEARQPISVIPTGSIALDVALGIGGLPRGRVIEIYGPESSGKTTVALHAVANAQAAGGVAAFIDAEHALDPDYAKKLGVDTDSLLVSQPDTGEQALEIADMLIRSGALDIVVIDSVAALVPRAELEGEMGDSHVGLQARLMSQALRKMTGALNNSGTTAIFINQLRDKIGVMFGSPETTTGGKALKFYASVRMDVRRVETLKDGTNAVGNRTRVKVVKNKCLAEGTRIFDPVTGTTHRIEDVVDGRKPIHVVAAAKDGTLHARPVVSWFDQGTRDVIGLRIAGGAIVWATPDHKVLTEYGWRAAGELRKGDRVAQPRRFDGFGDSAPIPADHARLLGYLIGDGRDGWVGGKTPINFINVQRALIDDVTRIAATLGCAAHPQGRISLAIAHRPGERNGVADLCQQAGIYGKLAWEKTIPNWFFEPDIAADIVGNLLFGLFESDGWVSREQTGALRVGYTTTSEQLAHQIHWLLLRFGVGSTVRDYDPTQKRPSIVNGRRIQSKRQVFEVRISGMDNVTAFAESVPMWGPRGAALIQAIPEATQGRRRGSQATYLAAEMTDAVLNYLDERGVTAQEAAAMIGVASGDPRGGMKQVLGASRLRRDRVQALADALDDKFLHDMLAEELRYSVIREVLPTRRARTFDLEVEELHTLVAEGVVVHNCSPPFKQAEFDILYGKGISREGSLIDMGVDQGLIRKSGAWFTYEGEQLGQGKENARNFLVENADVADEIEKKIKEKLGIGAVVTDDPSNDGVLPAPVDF
# YopH PTP inh = blocks Yersinia enterocolitica YopH tyrosine phosphatase. fluorescence Ex485/Em525. inhibition, %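 (about 10 µM by stock and volumes)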. hit rate 0.16% among 140,000;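 active = inhibition of 50% or more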;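 note: controls were vehicle for no effect and minimum signal wells for full effect; inactives centre near -20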
# Arbovirus inh repeat = recorded beside Arbovirus inh, whose call it bears; inhibition, %; measured here: 10K subset replicate screen; many hits read low in the repeat;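 first of two repeat runs on a subset; 0% = infected and 100% = uninfected wells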
# * marks the source's active call; other numbers are inactive results; ? = inconclusive; nt = not tested or not shown.
SMILES,Mtb growth,Mtb betalactam,Arbovirus inh,RecA intein inh,YopH PTP inh,others
CCOC(=O)C1CCCN(c2c(NCCN3CCCCC3C)c(=O)c2=O)C1 (stereo not given),1%,-5,3,0.9,-19,
O=C(Nc1ccc(F)c(Cl)c1)Nc1csc2ccccc12,55µM*,96,nt,-0.5,nt,
COC(=O)c1oc2ccc(Cl)cc2c1NC(C)=O,-10%,-6,5,1.5,29,
CCOc1cc(/C=N\NC(=O)Cn2nnc3ccccc32)ccc1O,-5%,4,3,-4.6,nt,
COc1ccc(-c2nnc(SCC(=O)c3cccs3)o2)c(OC)c1,-1%,4,4,0.4,90*,
Cc1ccc2c(c1C)NC(=O)CC(c1ccccc1O)=N2,2%,1,nt,-15,nt,
CCOc1ccccc1NC(=O)Cn1nnc(C(=O)Nc2ccccc2Cl)c1N,nt,nt,-7,-4.1,-60,
COc1ccc(N2CCN(CC(=O)Nc3cc(C)cc(C)c3)CC2)cc1,nt,2,nt,-2.5,nt,
COc1ccc(CN2CN(C3CCCC3)CSC2=S)cc1,1%,98,-1,-0.1,nt,
COc1ccc(CCNc2ccc(C)cc2)cc1,15%,6,2,-0.5,-21,
Cc1cc2c(=O)[nH]c(Cc3ccccc3)nc2s1,1%,-3,10,-0.6,-30,
COc1cccc(-c2nc(CS(=O)(=O)CC(=O)N3CCOCC3)c(C)o2)c1,nt,-8,nt,0.2,nt,
O=[N+]([O-])c1cc([N+](=O)[O-])c2c(=Nc3ccccc3)n(-c3ccccc3)n(O)c2c1,?,100,1,74*,nt,
COc1ccc(NC(=O)CN2C(=O)/C(=C3\SC(=S)N(CCC(=O)O)C3=O)c3ccccc32)cc1,nt,62,nt,2.1,nt,
COc1ccc(NC(=O)CN(C)C(=O)C(CCSC)NC(=O)c2ccccc2)cc1 (stereo not given),nt,-8,nt,-0.2,nt,
Cc1cccc(NC(=O)[C@@H]2CCCN2C(=O)OC(C)(C)C)c1,nt,-12,nt,0.9,nt,
CCSc1ccc2nnc(-c3cccs3)n2n1,12%,0,-2,-4.5,nt,
O=[N+]([O-])c1ccc(-n2nnnc2CN2CCOCC2)cc1,-12%,-1,3,-2.1,nt,
Cc1nc2oc3ccccc3c(=O)c2cc1C(=O)O,nt,-2,nt,-2.0,nt,
COc1ccc(-c2nc(C#N)c(NC(C)C)o2)cc1,1%,-3,1,1.0,-42,Arbovirus inh repeat=1
O=C(NCc1ccccn1)C1CCN(Cc2cccc(OCc3ccccc3)c2)CC1,0%,-1,1,1.3,-29,
CCC(OCC(O)CN1CCN(CCN2C(=O)c3cccc4cccc(c34)C2=O)CC1)c1ccccc1 (stereo not given),65%,88,-28,5.0,-14,
COc1ccccc1N(C)S(=O)(=O)c1ccc(C(=O)OCC(=O)N(C(C)C)C(C)C)cc1,-7%,10,-1,0.6,nt,
Cn1cnnc1SCC(=O)NNC(=O)COc1ccc(Br)cc1,-4%,5,5,0.7,nt,
Cc1ncc(C[n+]2csc(C)c2C)c(N)n1,5%,6,-5,4.8,nt,
SMILES,Mtb growth,Mtb betalactam,Arbovirus inh,RecA intein inh,YopH PTP inh,others
Cc1ccc(C(=O)COC(=O)CCc2nc3ccccc3[nH]c2=O)cc1C,-4%,12,4,-0.1,-4,
Cc1cc2nc(C(F)(F)F)[nH]c(=O)n2n1,-8%,-2,-1,0.3,-35,
O=C(O)c1cccc(Cn2cc(Cl)cn2)c1,3%,-4,-3,-2.0,-22,
O=C(COc1ccccc1)NNC(=O)c1cc2ccccc2o1,2%,?,-1,1.1,-18,
CN(C(=O)CC1C(=O)NCCN1Cc1ccc(F)cc1)C1CCOCC1 (stereo not given),-4%,-6,nt,-1.6,nt,
COC(=O)c1cc(OC)c(OC)cc1NC(=S)N1CCN(c2ccccc2)CC1,1%,1,-1,-2.5,-45,
Cc1ccc2cc(C(c3nnnn3Cc3ccccc3)N3CCc4ccccc43)c(=O)[nH]c2c1 (stereo not given),16%,70,-3,0.2,-19,
Cc1ccccc1NS(=O)(=O)c1ccc(C(=O)NCC(C)(C)N2CCOCC2)cc1,nt,-6,nt,-2.2,nt,
Cn1nc(-c2ccccc2)c(CO)c1Sc1ccccc1,6%,5,10,0.3,nt,
CN1/C(=C/C=C(/C#N)C(N)=O)C(C)(C)c2ccccc21,-8%,52,-20,-53,-32,
CN(CC(=O)Nc1cccc(F)c1)C(=O)CSc1ccccc1,nt,-13,nt,2.1,nt,
CN(CCc1nnc(N)s1)[N+](=O)[O-],-6%,2,12,2.0,nt,
CC1=NN(/C(=N\c2nnc(C)s2)Nc2ccccc2)[C@H](c2cccc3ccccc23)S1,-11%,2,-17,15,-1,
COC(=O)c1ccc(/C=N/NC(=O)C2CC(=O)N(c3ccc(F)cc3)C2)cc1 (stereo not given),nt,5,nt,-1.0,nt,
Cc1ccc(NCC(=O)N/N=C\c2ccc([N+](=O)[O-])o2)cc1,?,99,-18,-11,-10,
C=CCNc1oc(-c2cccs2)nc1C#N,-11%,-10,4,0.8,-15,
COc1cc(NC(=O)CCc2nnc3ccc(N4CCCCC4)nn23)cc(OC)c1OC,nt,-2,nt,-0.8,nt,
O=[N+]([O-])c1cccc(-c2ccn[nH]2)c1,-5%,-4,nt,nt,nt,
Cc1csc(=O)n1CC(=O)OC(C)C(=O)Nc1ccc(F)c(F)c1F (stereo not given),nt,-14,nt,-4.4,nt,
Cc1[nH]c2ccccc2c1C(c1ccccn1)N1CCC(C(N)=O)CC1 (stereo not given),-9%,-13,-22,3.8,-35,
COc1ccc(C(=O)/C=C2\Sc3ccccc3N2C)cc1,-4%,3,-15,-4.4,nt,
CCCCCCNC(=O)c1cn(CC)c2cc(N3CCN(C)CC3)c(F)cc2c1=O,nt,29,nt,1.4,nt,
COc1ccc(CC(=O)OC2CCCN(C)C2)cc1 (stereo not given),13%,2,1,2.3,nt,
CCCCn1c(-c2cccnc2)nc2cc3[nH]c(=O)c(C(C)C)nc3cc21,nt,45,nt,-28,nt,
Nc1c(Cl)c(Cl)nc(C(=O)OCC(=O)N2CCCC2=O)c1Cl,nt,-14,nt,-3.1,nt,

# Retrieved by structure from the list above, two records:
SMILES,Mtb growth,Mtb betalactam,Arbovirus inh,RecA intein inh,YopH PTP inh,others
Cc1csc(=O)n1CC(=O)OC(C)C(=O)Nc1ccc(F)c(F)c1F (stereo not given),nt,-14,nt,-4.4,nt,
Cc1ccccc1NS(=O)(=O)c1ccc(C(=O)NCC(C)(C)N2CCOCC2)cc1,nt,-6,nt,-2.2,nt,

# Other entries follow.
SMILES,Mtb growth,Mtb betalactam,Arbovirus inh,RecA intein inh,YopH PTP inh,others
C=CCc1c(C)nc(C)nc1N/N=C/c1ccc(F)cc1,1%,0,4,-11,-6,
O=c1c2c(-c3cccs3)csc2[nH]c(=S)n1-c1ccccc1,2%,-5,5,2.0,-3,
O=C(COc1ccccc1)NC1CCCc2ccccc21 (stereo not given),-2%,2,5,-3.8,-32,
Cc1cc(Cl)ccc1OCC(=O)NC(=S)Nc1ccc(Cl)cn1,nt,2,nt,-0.8,nt,
O=C(N/N=C/c1ccc(-c2ccccc2)o1)c1ccccc1O,-2%,69,nt,-0.7,nt,
COc1ccc(C(=S)N2CCCCCC2)cc1,-6%,4,8,0.6,14,
CN(C)/C=C/C(=O)c1cc(N2CCOCC2)ccc1[N+](=O)[O-],1%,-2,6,-4.6,nt,
Cc1ccc(Cn2ccc(C3CC3)n2)cc1,5%,0,-3,1.4,nt,
Cc1ccc2occ(C(c3nnnn3Cc3ccccc3)N3CCOCC3)c(=O)c2c1 (stereo not given),-9%,-5,-3,0.5,-4,
CCCCOc1nc2ccccc2nc1C(C#N)S(=O)(=O)c1ccccc1 (stereo not given),-5%,15,6,-2.7,-40,
CCOc1ccc(C(=O)OCC(=O)NC2CCCC2)cc1OCC,nt,-2,nt,1.5,nt,
CCCCn1c(N)c(N(CCOC)C(=O)CSc2ccccc2C)c(=O)[nH]c1=O,nt,1,nt,-3.8,nt,
COc1ccc(N=CC2=C(O)c3ccccc3C2=O)c(OC)c1,8%,1,-21,13,3,
COc1ccccc1NC(=O)CCN1C(=O)C2CC=CCC2C1=O (stereo not given),nt,6,nt,0.3,nt,
O=C(CSc1nnc2ccc(-c3ccccn3)nn12)NCC1CCCO1 (stereo not given),-5%,-2,1,0.3,nt,
CCCCCCCCCCCCN1[C@@H](CC(C)=O)c2cc(F)ccc2S1(=O)=O,5%,-9,nt,11,nt,
COC(=O)Cc1[nH]nc2c1C(c1cc(OC)c(OC)c(OC)c1)C(C#N)=C(N)O2 (stereo not given),nt,1,nt,18,nt,
Cc1ccc(OCC(=O)Nc2ccc(N3CCN(C(=O)c4ccco4)CC3)cc2)cc1C,3%,15,-4,-2.2,nt,
COc1ccc(-c2nn(CC(=O)N(C)C)c(=O)c3ccccc23)cc1,1%,-5,6,7.5,-4,Arbovirus inh repeat=-2
COc1cc([N+](=O)[O-])ccc1NC(=O)Cc1ccccc1,0%,3,-3,3.0,nt,
O=C(Nc1ccccc1C(=O)N1CCOCC1)C1CCCO1 (stereo not given),0%,-11,-1,1.5,10,
CSc1n[nH]c(=O)n1-c1ccc(Cl)cc1,-11%,-4,nt,-0.2,nt,
O=C(NNc1ccccc1)C(=O)N1CCCCC1,20%,94,-20,-0.2,-14,
COc1cc(-c2n[nH]c(=S)n2-c2ccc(Br)cc2)cc(OC)c1OC,nt,1,nt,-2.8,nt,
CCOC(=O)c1ccc(Oc2nc(NC)nc(Nc3ccccc3)n2)cc1,5%,11,-2,5.5,-7,
CCOC(=O)c1ccc(OCc2nc(-c3cccs3)no2)cc1,3%,5,8,2.3,-1,

# Filtered by structure: the compounds so far containing a halogen (17)
SMILES,Mtb growth,Mtb betalactam,Arbovirus inh,RecA intein inh,YopH PTP inh,others
O=C(Nc1ccc(F)c(Cl)c1)Nc1csc2ccccc12,55µM*,96,nt,-0.5,nt,
COC(=O)c1oc2ccc(Cl)cc2c1NC(C)=O,-10%,-6,5,1.5,29,
CCOc1ccccc1NC(=O)Cn1nnc(C(=O)Nc2ccccc2Cl)c1N,nt,nt,-7,-4.1,-60,
Cn1cnnc1SCC(=O)NNC(=O)COc1ccc(Br)cc1,-4%,5,5,0.7,nt,
Cc1cc2nc(C(F)(F)F)[nH]c(=O)n2n1,-8%,-2,-1,0.3,-35,
O=C(O)c1cccc(Cn2cc(Cl)cn2)c1,3%,-4,-3,-2.0,-22,
CN(C(=O)CC1C(=O)NCCN1Cc1ccc(F)cc1)C1CCOCC1 (stereo not given),-4%,-6,nt,-1.6,nt,
CN(CC(=O)Nc1cccc(F)c1)C(=O)CSc1ccccc1,nt,-13,nt,2.1,nt,
COC(=O)c1ccc(/C=N/NC(=O)C2CC(=O)N(c3ccc(F)cc3)C2)cc1 (stereo not given),nt,5,nt,-1.0,nt,
Cc1csc(=O)n1CC(=O)OC(C)C(=O)Nc1ccc(F)c(F)c1F (stereo not given),nt,-14,nt,-4.4,nt,
CCCCCCNC(=O)c1cn(CC)c2cc(N3CCN(C)CC3)c(F)cc2c1=O,nt,29,nt,1.4,nt,
Nc1c(Cl)c(Cl)nc(C(=O)OCC(=O)N2CCCC2=O)c1Cl,nt,-14,nt,-3.1,nt,
C=CCc1c(C)nc(C)nc1N/N=C/c1ccc(F)cc1,1%,0,4,-11,-6,
Cc1cc(Cl)ccc1OCC(=O)NC(=S)Nc1ccc(Cl)cn1,nt,2,nt,-0.8,nt,
CCCCCCCCCCCCN1[C@@H](CC(C)=O)c2cc(F)ccc2S1(=O)=O,5%,-9,nt,11,nt,
CSc1n[nH]c(=O)n1-c1ccc(Cl)cc1,-11%,-4,nt,-0.2,nt,
COc1cc(-c2n[nH]c(=S)n2-c2ccc(Br)cc2)cc(OC)c1OC,nt,1,nt,-2.8,nt,

# This is a subset, so the mix of outcomes need not match the whole.
